Mtb hypoxia rep: reduces hypoxia-regulated biosensor signal in M. tuberculosis | M. tuberculosis hypoxia-regulated fluorescent reporter, fluorescence | fluorescence inhibition, % (no concentration beside the values) | actives 0.1% (n = 300,000) | AID 1159583;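 active means 35 to 45% if threefold the growth effect, above 45% if 1.5-fold the growth effect; inactive means the rest, general growth blockers included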;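 further: wells of about 50 µL received 100 nL stock; 0% = vehicle wells and 100% = reference inhibitor wells; whole bacteria with a GFP reporter of the hypoxia response; strong numbers were not always called active; many hits fall short of the cut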
BJeLR viability: kills HRASV12-expressing BJeLR cells. BJeLR (HRASV12) viability, CellTiter-Glo ATP luminescence, 48 h; reference of the scale not given here. AID 1554. actives 0.17% (n = 300,000). inhibition, % (no concentration beside the values);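 active means replicate mean above 50%; inconclusive means above 50% but judged a plate artefact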;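 further: 50 nL library stock added to about 25 µL; numbers are from one replicate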
PrP 5UTR inh: suppresses PrP 5' UTR mRNA reporter expression; cell-based PrP 5' UTR mRNA reporter, plate reader; inhibition, % (concentration not given with the values); actives 0.35% (n = 340,000); AID 488862;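 active means every replicate at 50% or more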;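 further: 0 = median of the neutral control wells; tested in H4 reporter cells; numbers are from one replicate; inactives centre near -14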
Bead autofluor: flagged as autofluorescent in microsphere protease counterscreen; actives 3.1% (n = 360,000); fluorescence intensity (concentration not given with the values); compound autofluorescence counterscreen, microsphere flow cytometry; stronger effect = higher value; AID 624483;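 active means at least 3 SD above the mean of all compounds, about 16000 in these data; inconclusive means too few beads counted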;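 further: 100 nL of 1 mM stock went into each well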
ugtP null kill: growth inhibition of S. aureus ugtP deletion strain; growth inhibition, % (no concentration beside the values); AID 1259309; actives 0.54% (n = 330,000); S. aureus RN4220 ugtP deletion, OD600 growth, 16 h; some inactives read as strong as hits;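 active means z-score under -3 and OD600 up to 0.15 on both plates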;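 further: plate controls were untreated wells for no effect and antibiotic for full effect; wells of about 80 µL received 100 nL stock; the first replicate is given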
RN4220 kill: S. aureus RN4220 growth inhibition; AID 1259311; inhibition, % (test concentration not listed); actives 0.33% (n = 330,000); OD600, 16 h;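 active means z-score of -3 or lower and OD600 up to 0.18 on both plates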;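 further: plate controls were untreated cells for no effect and reference antibiotic for full effect; stock transfer was 100 nL into about 80 µL; one replicate is shown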
Mtb hypoxia rep growth: recorded beside Mtb hypoxia rep, whose call it bears; growth inhibition, %; measured here: M. tuberculosis growth (absorbance);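 0% = vehicle and 100% = reference antibiotic; read after six days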
The depositor's hits bear a star; u = inconclusive; x = no result given.

SMILES	Mtb hypoxia rep	Mtb hypoxia rep growth	BJeLR viability	PrP 5UTR inh	Bead autofluor	ugtP null kill	RN4220 kill
COc1ccc(Cl)cc1-c1nc(SCC(=O)N(C)C)n[nH]1	10	4	8	-21	3880	-68	7.4
O=C1c2cccc3cccc(c23)C(=O)N1CC1CCN(CC(O)COc2ccc3ccccc3c2)CC1 (configuration not stated)	10	24	10	2	5032	14	59
CC(=NNC(=O)C(=O)Nc1cc(C)ccc1C)c1ccncc1	-5	9	x	x	x	5	1.6
CN(C)CCCn1c2c(c(SCC(=O)Nc3ccc4c(c3)OCO4)nc1=O)CCCC2	4	3	7	-8	5653	3	-0.9
O=C(C1=C(O)C(=O)N(c2nc3ccc(Cl)cc3s2)C1c1ccco1)c1ccco1 (configuration not stated)	-6	5	x	-20	9356	72	32
CCOC(=O)c1cc(NC(=O)c2cccnc2)cc(C(=O)OCC)c1	5	-2	7	-16	24816*	-1	10
O=S(=O)(c1cccc(S(=O)(=O)N2CCOCC2)c1)N1CCCCCC1	10	0	-1	-9	3490	3	7.5
O=C(NCCc1ccccc1)c1cccc(S(=O)(=O)NCc2ccccc2)c1	0	-3	4	-18	5982	10	0.2
CN(C(=O)c1cc(-c2ccccc2)on1)C1CCCCC1	16	3	-1	-80	2800	2	0.7
O=C(CN(c1ccccc1F)S(=O)(=O)c1ccccc1)N1CCCCCC1	11	11	2	-19	4826	-2	14
CCOC(=O)C(=CNc1cc(C)ccc1C)C(=O)OCC	2	6	6	-14	17727*	-15	1.8
COc1ccc(C(=O)NCC(C)CN(C)C)cc1 (configuration not stated)	x	x	-2	-18	4055	1	4.6
CCn1c(C)nc2cc(S(=O)(=O)N3CCCC3)ccc21	13	9	x	-3	4759	6	4.6
O=C(c1cn(-c2ccccc2)nc1-c1cccs1)N1CCN(c2ccccn2)CC1	13	12	0	-6	4066	-2	0.7
CCCNC(=O)COC(=O)c1ccccc1C(=O)c1ccc(Cl)c([N+](=O)[O-])c1	6	23	17	-6	3046	-1	0.2
Cc1ccc(-c2nc(-c3cccnc3)no2)cc1	4	8	5	-74	4766	6	5.7
NC(=O)c1ccsc1NC(=O)CSc1nnc(NC2CC2)s1	6	12	x	-15	3693	-1	-0.9
O=C1c2ccccc2COc2ccc(O)cc21	x	x	0	-19	3964	-1	3.6
Cc1cc2c(c(N3CCOCC3)n1)C(=O)OC2	13	6	1	-9	2433	1	3.2
O=C(NC(=O)N1CCCC1)c1csnn1	12	-5	-2	-32	5380	4	3.3
COc1ccc(CN(C)CC(=O)Nc2ccccc2C(=O)NC2CC2)cc1F	-3	1	x	-24	5274	3	5.9
CCOCCc1nnc(NC(=O)Cc2c(F)cccc2Cl)s1	5	2	5	-4	4530	1	6.9
CCCCCCOc1ccc(/C=C/C(=O)N2CCOCC2)cc1OC	-2	14	-5	-15	4559	-3	5.9
CCc1nccn1S(=O)(=O)c1cc(OC)ccc1OC	x	x	-3	-39	3572	x	x
CN(CCCCCCCCC(=O)C=NO)Cc1ccccc1	9	6	x	x	x	8	1.1
SMILES	Mtb hypoxia rep	Mtb hypoxia rep growth	BJeLR viability	PrP 5UTR inh	Bead autofluor	ugtP null kill	RN4220 kill
Cc1ccc(Cn2nnc3c(=O)n(CC(=O)NCc4ccccc4)cnc32)cc1	-5	-5	0	-22	2580	-1	-3.3
Cc1ccc(OCC(=O)Nc2cccc3c2CCCC3)cc1C	x	x	-3	-23	2972	43	15
O=C(Nc1cccc(NC(=O)N2CCN(c3ccccc3)CC2)c1)N1CCN(c2ccccc2)CC1	2	10	1	-15	3388	-6	-6.5
N#Cc1ccc(CN2CCN(C(=O)CN3C(=O)NC4(CCCC4)C3=O)CC2)cc1	5	-4	x	-7	4074	1	3.9
CCc1ccc(C(=O)CSc2ncn[nH]2)cc1	-5	7	-7	-41	5595	-1	4.1
Cc1cc(/C=C(\C#N)C(=O)Nc2ccccc2)c(C)n1-c1ccc(C(=O)O)cc1	9	0	9	-12	4585	13	12
Cc1cc(C)c(S(=O)(=O)Nc2ccccc2C(=O)OCC(=O)NCc2ccccc2)c(C)c1	0	4	0	-32	3213	8	-4.9
CC1CCC(NC(=O)C2CCC(CNS(=O)(=O)c3cccc4cccnc34)CC2)CC1 (configuration not stated)	5	4	-10	-10	5036	4	0.6
O=[N+]([O-])c1ccc(/C=C/C2=NN(c3ccccc3)C(c3ccco3)C2)cc1 (configuration not stated)	0	7	x	-15	34435*	0	-4.5
COc1ccc(NC(=O)c2ccccc2S(=O)c2ccccc2C#N)cc1 (configuration not stated)	1	8	2	-15	3549	0	6.8
CC1(c2nnc(-c3cccc(Cl)c3)o2)CC(c2ccc(OC(F)(F)F)cc2)=NO1 (configuration not stated)	12	2	-3	-58	3733	2	7.3
CC(NC(=O)COc1ccccc1)C(=O)NCc1ccccc1Cl (configuration not stated)	12	10	x	x	x	5	7.5
Cc1ccc(-c2csc(NC(=O)c3ccc(-c4ccccc4)cc3)n2)o1	3	10	7	-17	4527	70	31
Cc1ccc2c(CC(=O)N3CCN(c4ccccc4)CC3)coc2c1	4	3	-31	-4	4498	-1	-0.4
CCOC(=O)C1=C(C)NC(=S)NC1/C=C/c1ccccc1 (configuration not stated)	3	-1	-1	-11	2022	3	2.2
CC(C)N1C(=O)CCC1C(=O)NCc1ccccc1Cl (configuration not stated)	6	7	2	-34	5932	7	8.1
COc1ccccc1-c1cnn2c(N3CCOCC3)cc(C)nc12	1	-3	15	-33	3913	1	4.6
C/C(N)=C(/C#N)C(=O)COC(=O)c1cc2c(s1)CCCC2	8	-1	-2	-24	4425	17	5.3
O=Cc1ccc2noc(-c3ccc(Cl)cc3)c2c1	2	7	7	-36	10385	-2	6.8
O=C(CNC(=O)c1ccc(Br)o1)NNC(=O)c1ccc(Br)cc1	7	11	x	-5	3589	3	1.9
CCOC(=O)N1CCC(C(=O)Nc2ccc(OCC)cc2)CC1	4	0	3	-38	5571	-3	4.0
COc1cccc(CNC(=O)CCNS(=O)(=O)c2ccc(C)cc2)c1	0	4	-3	6	5681	1	-0.8
c1ccc(-c2ccc3[nH]ccc3c2)cc1	9	7	x	-33	3641	14	-3.2
CCOc1cc(CNn2cnnc2)cc(Br)c1OCC(=O)NC(C)(C)C	14	10	11	-15	3407	1	2.0
O=C(Nc1ccc(S(=O)(=O)N2CCCCC2c2cccnc2)cc1)c1ccccc1F (configuration not stated)	-3	7	-5	-20	2778	4	-0.3

Of the compounds above, these contain a nitro group on carbon:
SMILES	Mtb hypoxia rep	Mtb hypoxia rep growth	BJeLR viability	PrP 5UTR inh	Bead autofluor	ugtP null kill	RN4220 kill
CCCNC(=O)COC(=O)c1ccccc1C(=O)c1ccc(Cl)c([N+](=O)[O-])c1	6	23	17	-6	3046	-1	0.2
O=[N+]([O-])c1ccc(/C=C/C2=NN(c3ccccc3)C(c3ccco3)C2)cc1 (configuration not stated)	0	7	x	-15	34435*	0	-4.5

Back to the main list with the 4 entries that preceded the break.
SMILES	Mtb hypoxia rep	Mtb hypoxia rep growth	BJeLR viability	PrP 5UTR inh	Bead autofluor	ugtP null kill	RN4220 kill
COc1cccc(CNC(=O)CCNS(=O)(=O)c2ccc(C)cc2)c1	0	4	-3	6	5681	1	-0.8
c1ccc(-c2ccc3[nH]ccc3c2)cc1	9	7	x	-33	3641	14	-3.2
CCOc1cc(CNn2cnnc2)cc(Br)c1OCC(=O)NC(C)(C)C	14	10	11	-15	3407	1	2.0
O=C(Nc1ccc(S(=O)(=O)N2CCCCC2c2cccnc2)cc1)c1ccccc1F (configuration not stated)	-3	7	-5	-20	2778	4	-0.3
CCOC(=O)c1ccccc1NC(=O)c1c(O)[nH]c(=S)[nH]c1=O	13	11	-17	-21	4127	6	7.0
CC(C)CN(C(=O)c1cccc(S(=O)(=O)N2CCN(Cc3ccccc3)CC2)c1)C1CCS(=O)(=O)C1 (configuration not stated)	-7	-4	0	-3	u	-8	-5.1
Cc1ccc(C(=O)N2CCCC(Nc3ccc(C(C)C)cc3)C2)cn1 (configuration not stated)	5	6	5	-33	5932	0	0.8
CC1CCCC(C)N1CCCNC(=O)Cn1cc2c(n1)CCCC2 (configuration not stated)	x	x	0	-37	5127	6	-1.9
C[C@H]1COC(=O)CCC/C=C\C[C@H](CC(=O)N(CCO)Cc2ccccc2)C(=O)N1	1	3	x	-8	3275	8	3.0
Cc1cccc(/C=C/C(=O)c2ccc(NC3=NCCCS3)cc2)c1	-13	-6	x	-38	2489	17	-11
O=c1c([N+](=O)[O-])cccn1Cc1ccccc1Cl	4	-2	-1	-13	4516	2	-0.7
Cc1ccc(Nc2nnc(SCC(=O)Nc3cccc(S(=O)(=O)N4CCCCC4)c3)s2)cc1	1	-1	-8	-9	4376	53	3.0
COc1ccc2[nH]cc(C(=O)N3CCCCC3)c(=O)c2c1	-14	-8	3	-18	9333	4	0.1
Cc1nc2ccccn2c1C(=O)NCCCN1CCOCC1	0	14	-2	-2	3207	6	3.8
CC1CCN(C(=O)Cn2cnc3c(cnn3C(C)(C)C)c2=O)CC1	2	22	5	-13	4496	-1	2.8
COc1ccc(NC(=O)CN(C)S(=O)(=O)c2ccc3c(c2)OCCO3)c2ncccc12	17	12	-5	-5	9500	-4	5.3
N#CC(=NNc1cccc(F)c1)C(=O)C1CC1	1	-1	x	x	x	20	25
CSc1n[nH]c(NCc2ccccc2)n1	x	x	-15	-4	4343	-1	0.3
CC(C)=NNc1nc(-c2ccccc2)cs1	2	6	9	-8	2266	-3	2.7
O=C(NCc1ccncc1)c1cc(S(=O)(=O)N2CCOCC2)c(Cl)cc1Cl	0	-6	-4	-6	x	3	1.2
CCOc1ccc2nc(SCC(=O)c3cccs3)sc2c1	11	13	5	-61	9013	11	7.8
O=[N+]([O-])c1ccc(N2CCN(c3ccccn3)CC2)c(Cl)c1	17	6	-7	-25	3825	6	6.7
CCc1ccccc1NC(=O)CNC(=O)c1ccc(OCc2cn3ccccc3n2)cc1	5	1	x	-11	3694	-3	-0.4
CCN1CCN(CCCNC(=O)CCC(=O)N2CC(C)Oc3ccc(C)cc32)CC1 (configuration not stated)	1	6	2	2	5931	0	0.4
CCCNC(=O)C(Cc1ccc(I)cc1)NC(=O)C1CC1 (configuration not stated)	6	-2	x	-10	3986	7	4.0
CC(=O)ON=C(c1nonc1N)N1CCN(c2ccc([N+](=O)[O-])cc2Cl)CC1	-2	-3	x	x	x	-19	-2.3
CC(=O)OCC(=O)Nc1ccc(N=Nc2ccccc2)cc1	1	-3	-2	-97	2613	2	-1.7
Nc1cc(S(=O)(=O)C(F)(F)F)ccc1C(=O)O	13	11	-12	2	2520	1	7.6
COc1cc(NC(=O)CN2C(=O)CSc3ccc(S(=O)(=O)N4CCCC4)cc32)cc(OC)c1	0	-9	-3	-8	5073	5	-2.4
SMILES	Mtb hypoxia rep	Mtb hypoxia rep growth	BJeLR viability	PrP 5UTR inh	Bead autofluor	ugtP null kill	RN4220 kill
CCc1nnc2sc(-c3ccc(NC(=O)CSc4ccc(Cl)cc4)cc3)nn12	0	11	0	-16	u	-4	9.6
COc1ccc(NC(=O)CN(C)S(=O)(=O)c2ccc(Cl)cc2)cc1Cl	4	1	1	2	6253	1	0.3
COc1ccccc1C(=O)NCCC(=O)NNC(=O)Cn1ccc(C(F)(F)F)n1	11	9	-2	-16	u	3	-1.4
COc1ccccc1N(CN1C(=O)c2ccccc2C1=O)C(=O)c1cccc(C)c1	4	2	-2	-12	2495	0	9.6
CC1CN(c2nc3ccccc3nc2NS(=O)(=O)c2ccccc2)CC(C)O1 (configuration not stated)	-4	0	x	-15	3696	-11	2.3
CCOC(=O)C1(CCc2ccccc2)CCN(Cc2ccccn2)CC1	0	15	0	-11	4719	-2	5.7
Cn1cc(Br)c(C(=O)NN=Cc2cccc(OC3CSC3)c2)n1	9	5	x	x	x	35	2.7
Cn1c(=O)c(NC(=O)c2ccccc2)c2n(c1=S)CCCCC2	5	0	0	-7	9625	-1	2.3
Fc1cccc(/C=N/Nc2nccnc2Cl)c1	x	x	35	-65	3457	x	x
COc1ccc(/C=N/Nc2nc(Nc3ccccc3)nc(N3CCCC3)n2)cc1	x	x	2	-49	2185	x	x
O=C(NC1CCCC1)C(c1ccncc1)N(C(=O)c1csnn1)c1ccccc1 (configuration not stated)	13	2	-13	-7	4828	3	4.2
Nc1nc(N)n(-c2ccccc2)c(=Nc2ccccc2)n1	11	5	1	-9	3934	7	5.2
Cc1cccc(NS(=O)(=O)c2c(C(=O)N3CCCC3)c(C)n(C)c2C)c1	4	-3	16	-12	3598	1	0.9

Screening data: PubChem, several laboratories
